Vaccinia mCherry = qHTS for Stage-Specific Inhibitors of Vaccinia Orthopoxvirus: mCherry Reporter Primary qHTS; Vaccinia virus mCherry reporter infection, fluorescence; about a quarter of the inactives have no number; Potency, µM (highest dose often 36.5 µM), inactives show at the highest dose activity change, negative = inhibition, actives largely listed as inhibitors; actives 0.63% (n = 310,000); AID 720579, 2013; active = well fitted inhibition curve with a large enough effect; inconclusive = small, poorly fitted or top-dose-only effect; inactive = no such curve, though single readings can be large or run the other way; tested in A549 cells; further: nearly all actives have a fitted effect of over 35% in size; inactives centre near -10
VACV Venus inh = qHTS for Stage-Specific Inhibitors of Vaccinia Orthopoxvirus: Venus Reporter Primary qHTS; Vaccinia virus Venus reporter expression, fluorescence; Potency, µM (doses to about 36.5 µM), inactives show at the top dose activity change, negative = inhibition, usual class: inhibitors; actives 0.46% (n = 330,000); active means well fitted inhibition curve with a large enough effect; inconclusive means small, poorly fitted or top-dose-only effect; inactive means no such curve, though single readings can be large or run the other way; tested in A549 cells; further: nearly all actives have a fitted effect of over 30% in size; inactives centre near -10
* hit, by the source's call; i = inactive; ? = inconclusive; . = no result given; & = joins results of further samples; [ ] = dose if it differs, or a comment. On the % scale 0 is the no-effect control and ±100 the full control effect; potency means the concentration at half of the fitted maximal effect.

Below each compound – Vaccinia mCherry, VACV Venus inh
COc1cccc(C(C)(O)c2nc(-c3ccc(F)c(Cl)c3)cs2)c1 (stereo not given)
  ?, -17%
CCNC(=O)CCc1nc(-c2ccc(C(C)(C)C)cc2)no1
  -10%, ?
N#Cc1ccccc1COC(=O)CCCC1=NS(=O)(=O)c2ccccc2N1
  -9%[7.34 µM], -5%[7.34 µM]
CCN1C(=O)[C@@H]2[C@H](C1=O)[C@@H]1C(=O)Nc3ccccc3C(=O)N1[C@@H]2c1cccc(OC)c1
  i, 1%
Cc1cc(/C=C2/C(=O)NN(c3ccccc3)C2=O)c(C)n1-c1cccc(O)c1
  -9%, -9%
Cc1c(NC(=O)CCSCCc2ccccn2)cccc1[N+](=O)[O-]
  0%, -14%
CC(C)Oc1ccccc1C1C=C(C(=O)O)Nc2ncnn21 (stereo not given)
  0%, -2%
CCN(CC)S(=O)(=O)c1ccc(/C=C/C(=O)OCC(=O)Nc2cccc3ccccc23)cc1
  -17%, -7%
CCC(CO)Oc1cc(NCc2ccccc2C)c2ncn(C(C)C)c2c1 (stereo not given)
  -27%, -13%
CCOC(=O)c1sc(NC(=O)c2ccc(C)o2)nc1C
  i, -11%
COc1ccc(-c2c(C)nn3c(N4CCN(c5cc(Cl)ccc5C)CC4)cc(C)nc23)cc1OC
  -7%, -4%
CC(=O)Nc1ccc(N/C=C/C(=O)C(C)(C)C)cc1
  -24%, -9%
Cc1nn(-c2ccccc2)c2sc(C(=O)Nc3ccccc3Br)cc12
  ?, ?
O=C(NNC(=O)C(O)c1ccccc1)NC1CCCCC1 (stereo not given)
  i, -5%
COc1cccc(NC(=O)C2CCN(c3nnc(-n4c(C)ccc4C)s3)CC2)c1
  -6%, -14%
CSc1nc(C)c(Br)c(N2CC2)n1
  i, -5%
Cc1cccc(N2CCN(c3nc(C)cc(C)c3C#N)CC2C)c1 (stereo not given)
  ?, -14%
CCOC(=O)[C@@H]1[C@H]2COc3ccccc3[C@@H]2N2C(=O)N(c3ccc(OC)cc3)C(=O)[C@]12C
  i, -20%
O=C(Cn1c(=O)oc2ccccc21)NCc1cccc(Cl)c1
  -17%, -2%
CN(Cc1ccccc1NS(=O)(=O)c1ccc2ccccc2c1)C1CCCCC1
  ?, -20%
Cc1nc(NCc2ccc3c(c2)OCO3)c2oc3ccccc3c2n1
  i, -6%
COC(=O)c1ccccc1NC(=O)COc1ccc(S(=O)(=O)NC(C)C)cc1
  i, -22%
CCCC(=O)N1CCC1(C)C(=O)NS(=O)(=O)c1cc2c(cc1C)CCCS2(=O)=O (stereo not given)
  42%[activator], -1%
Cc1ccc(NC(=O)c2onc(C)c2Cl)cc1
  i, -12%
CCN(CC)C(=S)Nc1ccc([N+](=O)[O-])cc1
  i, -16%
Cc1cc(C)nc(NC(=O)CSc2nn(C)c(=S)s2)n1
  -7%, -6%
CC(=O)NC(C)(c1ccccc1)c1nc(-c2cncnc2)cs1 (stereo not given)
  27%, 1%
Cc1ccccc1OS(=O)(=O)c1cn(C)c(=O)n(C)c1=O
  -10%, -7%
Cc1ccc(C(=O)N2CCOCC2)cc1S(=O)(=O)N1CCOCC1
  -16%, -5%
CCOC(=O)c1c(NC(=O)/C(C#N)=C/c2ccc(OC)cc2)sc2c1CCC2
  -5%, -4%
Cc1ccc(OCCN(C)C(=O)c2cc(COc3ccc(F)cc3F)on2)cc1
  i, -16%
CC(C)CCn1c(=O)c2ccccc2n2c(CN3CCOCC3)nnc12
  i, -4%
CCOC(=O)C1C(=O)NC(C(=O)OCC)(C(=O)OCC)C1C(C)CC (stereo not given)
  -4%, -2%
S=c1nc(-c2ccccc2Cl)[nH][nH]1
  -3%, 0%
CC(=O)c1ccc([C@@H]2C[C@]34CN(Cc5cccc(C(F)(F)F)c5)S(=O)(=O)[C@H]3C[C@H]2O4)cc1
  i, -27%
COc1cc(OC)c2c(-c3cccc(-c4ccc(OC(F)(F)F)cc4)c3)cc(=O)oc2c1
  -7%, -8%
CC(C)N(C(=O)CCl)c1ccccc1
  -25%&-9%, ?
CCCCn1nnnc1SCC(=O)N1CCCC1
  -6%, -3%
Cc1nc2ccccc2n1CCN1CCOCC1
  i, -4%
COC(=O)c1c(NC(=O)c2cccc(S(=O)(=O)N3CCN(C)CC3)c2)sc(C)c1C
  -23%, -12%
CCCN(CCC)c1ccc(C2N=C(N)Nc3nc4ccccc4n32)cc1 (stereo not given)
  ?, -25%
Cc1ccc2nc(-c3ccccc3C)oc(=O)c2c1
  i, -7%
COCCNC(=O)C1(C)CCN(C(=O)c2cccc(C)c2C)C1 (stereo not given)
  19%, -1%
O=C(Cn1cnc2c(OCc3ccccc3)ncnc21)N1CCN(c2ccccn2)CC1
  i, -21%
CN(C)C(=O)c1ccc(NC(=O)CN2CCc3cc4c(cc3C2)OCCCO4)cc1
  -22%, ?
CCOc1ccc(C(=O)N(CN2CCCC2=O)c2cccc(Cl)c2)cc1
  9%, 6%
O=C(Nc1ncccc1O)c1cccc(S(=O)(=O)N2CCN(c3ccc(F)cc3)CC2)c1
  -19%, -19%
Cc1nnc(SCC(=O)Nc2ccccc2)n(N)c1=O
  0%, -2%
O=C(c1nc2ncccn2n1)N1CCc2ccccc2C1
  ., -10%
COc1ccccc1CCNC(=O)Cc1c(C)c2c(cc(C)c3c(C)c(C)oc32)oc1=O
  -4%, -4%
Cc1ccc(C(=O)Nc2ccc(-c3nc4ccccc4s3)c(O)c2)c(C)c1
  -14%[7.34 µM], -8%[7.34 µM]
CSc1nc(SCC(=O)NCc2ccco2)c2c3c(sc2n1)CN(C)CC3
  -5%, -8%
O=C(CN1CCN(c2ccccc2O)CC1)Nc1ccc([N+](=O)[O-])cc1Br
  -27%, -16%
COc1ccc2c(=O)c3ccccc3oc2c1
  5%&-8%, 1%&-3%
COc1ccccc1CNS(=O)(=O)c1c(C)[nH]c(=O)[nH]c1=O
  i, -7%
Cc1cccc(C(=O)N/C(=C/c2ccco2)C(=O)N2CCCCCC2)c1
  -10%, 4%
NC(=O)NC(=O)CSc1nc(-c2ccccc2)c(-c2ccccc2)n1CC1CCCO1 (stereo not given)
  i, -26%
O=C(O)Cn1cc(/C=c2/sc3nc4ccccc4n3c2=O)c2ccccc21
  0%, 5%
CCOC(=O)[C@]12CCC=C1N(Cc1ccccc1)C(=O)[C@H](CC(=O)NCc1ccc(OC)c(OC)c1)C2
  -28%, -14%
Cc1cc(NC(=O)CSc2nnc(-c3ccco3)n2Cc2ccccc2)no1
  -5%, -13%

(continued)
Below each compound – Vaccinia mCherry, VACV Venus inh
COc1cccc(CNC(=O)CSc2ccc(-c3ccccn3)nn2)c1
  -22%, -15%
CC(C)NC(=O)NS(=O)(=O)c1cnccc1NC1CC2CCC1C2 (stereo not given)
  ., -26%
CCn1c(C)c(CS(=O)(=O)c2ccccc2)[nH]c1=O
  i, -14%
Cc1ccc(C(=O)Nc2c(N)nc(SCC(=O)NCC3CCCO3)[nH]c2=O)cc1 (stereo not given)
  i, -10%
COc1ccc(OC)c(C2CC(=O)Nc3c2c(=O)[nH]c2nc4ccccc4n32)c1 (stereo not given)
  2%, 19%
CCC1CCCCN1C(=O)COc1cc(=O)n(C)c2ccccc12 (stereo not given)
  -8%, 5%
COc1ccc(NC(=O)C2CCN(S(=O)(=O)c3ccc(N4CCCC4=O)cc3)CC2)c(OC)c1
  -10%, -6%
CCC(C(=O)NCc1ccncc1)c1ccccc1 (stereo not given)
  i, 2%
CC(O)(c1ccc(F)c(F)c1)c1nc(-c2ccc(F)c(Cl)c2)cs1 (stereo not given)
  -6%, -29%
Cc1cccc(CCNC(=O)C2CCC(=O)N2Cc2ccc(F)cc2)c1 (stereo not given)
  i, -16%
CN(C)S(=O)(=O)c1ccc(N2CCCC2)c(C(=O)NCCc2ccc(F)cc2)c1
  -12%, -6%
C[C@H]1C(=O)O[C@@H]2CCN3CC=C(COC(=O)[C@](C)(O)[C@]1(C)O)[C@H]23
  -11%, -3%
O=C(O)c1ccc(CSCc2ccccc2F)o1
  -21%, -11%
O=C(NCCc1c[nH]c2ccccc12)c1cc(S(=O)(=O)N2CCCCC2)ccc1N1CCOCC1
  -6%, -24%
Cc1cc(NC(=O)COC(=O)CCCOc2ccc(Cl)cc2C)no1
  -21%, -5%
C=CC[C@H](CC(=O)NCCO)C(=O)N[C@H](COC(=O)[C@H](CC=C)CC(=O)OC(C)(C)C)c1ccccc1
  -12%, -5%
O=c1c2c3c(sc2n(Cc2cc(=O)n4ccccc4n2)c(=O)n1-c1ccccc1)CCC3
  -6%, -6%
Cc1cc(S(=O)(=O)N2CCCC2)ccc1OCC(=O)NCc1ccccn1
  10%, -3%
CN(C)/C=C(/C(=O)c1ccc(F)cc1)S(=O)(=O)c1ccc(F)cc1
  -2%, 1%
CCN(CC(=O)Nc1ccc(NC(C)=O)cc1)C(=O)c1cc(S(=O)(=O)N2CCCCCC2)ccc1OC
  -6%, -13%

Part of the list above in another layout.
structure	Vaccinia mCherry	VACV Venus inh
CCC(C(=O)NCc1ccncc1)c1ccccc1 (stereo not given)	i	2%
CCn1c(C)c(CS(=O)(=O)c2ccccc2)[nH]c1=O	i	-14%
CN(C)/C=C(/C(=O)c1ccc(F)cc1)S(=O)(=O)c1ccc(F)cc1	-2%	1%

Fetched by compound from the list above (5):
Below each compound – Vaccinia mCherry, VACV Venus inh
C=CC[C@H](CC(=O)NCCO)C(=O)N[C@H](COC(=O)[C@H](CC=C)CC(=O)OC(C)(C)C)c1ccccc1
  -12%, -5%
O=C(O)c1ccc(CSCc2ccccc2F)o1
  -21%, -11%
O=c1c2c3c(sc2n(Cc2cc(=O)n4ccccc4n2)c(=O)n1-c1ccccc1)CCC3
  -6%, -6%
Cc1cc(NC(=O)COC(=O)CCCOc2ccc(Cl)cc2C)no1
  -21%, -5%
CCN(CC(=O)Nc1ccc(NC(C)=O)cc1)C(=O)c1cc(S(=O)(=O)N2CCCCCC2)ccc1OC
  -6%, -13%

More structures.
Below each compound – Vaccinia mCherry, VACV Venus inh
O=C(Nc1ccc([N+](=O)[O-])cc1)c1cc(-c2ccccn2)nc2c(Cl)cccc12
  i, 5%
COc1ccc(-c2ccc3c(c2)S(=O)(=O)c2cccc(C(=O)N4CCN(c5ccc(Cl)cn5)CC4)c2C3=O)cc1OC
  ?, ?
CC(C)Oc1ccccc1OCCN(C)C
  -5%, -1%
CCCCNC(=S)N(C)/N=C/c1ccc(OCc2ccc(C(=O)OC)cc2)c(OC)c1
  -18%, -6%
Cc1[nH]c2ccccc2c1C(=O)CN1CCC2(CC1)OCCO2
  -13%, -11%
COc1ccccc1C(CNC(=O)CNC(=O)c1cccc(Cl)c1)N1CCCC1 (stereo not given)
  -10%, -12%
O=C(NN1CCCCCC1)c1ccccc1F
  i, -13%
O=C(/C=C\Nc1ccccn1)c1ccccc1
  -21%, -18%
Cn1nccc1C(=O)Nn1cnnc1
  ., 7%
C=CCn1c(O)c(/C(C)=N/N2CCN(C)CC2)c(=O)[nH]c1=O
  i, 0%
COc1ccc(CCNC(=O)c2cnn(-c3ccc(F)cc3)c2C2CCN(C(=O)OC(C)(C)C)CC2)c(OC)c1
  -24%, -30%
C#CCNC(=O)C[C@@H]1C[C@@]2(C(=O)OC)CCCCC=C2N(CCCCCCCC)C1=O
  -18%, -5%
Cc1cc(C)c2c(=O)cc(CSc3nnc(-c4ccccc4)n3C)[nH]c2c1
  -4%, -1%
CCN1CCN(C(=O)CCc2nc3ccccc3c(=O)[nH]2)CC1
  -6%, -1%
O=S(=O)(Nc1cccc(-c2cn3cccnc3n2)c1)c1ccc(-c2ccccc2)cc1
  ., -13%
O=C(O)c1cnn2c1NC(c1ccc(F)cc1)CC2C(F)(F)F (stereo not given)
  -11%, -8%
COc1cccc(CN2CC(C(=O)NC3(c4ccccc4)CC3)CCC2=O)c1 (stereo not given)
  -20%, -14%
O=C(COC(=O)c1cccnc1Cl)NCC1CCCO1 (stereo not given)
  i, -1%
O=C(NCCN1CCOCC1)c1cc(-c2cccs2)nc2ccccc12
  -13%, -12%
Cc1ccc(-n2nc(C(=O)N3CCN(c4ccc(F)cc4)CC3)c(=O)n(C)c2=O)cc1
  -2%, -11%

Quoted from the listing:
Cc1ccc(C(=O)Nc2ccc(-c3nc4ccccc4s3)c(O)c2)c(C)c1 in Vaccinia mCherry is entered as -14%[7.34 µM]
Cc1cc(NC(=O)CSc2nnc(-c3ccco3)n2Cc2ccccc2)no1 in Vaccinia mCherry is entered as -5%
CCCCNC(=S)N(C)/N=C/c1ccc(OCc2ccc(C(=O)OC)cc2)c(OC)c1 in VACV Venus inh is entered as -6%
Cc1cc(C)c2c(=O)cc(CSc3nnc(-c4ccccc4)n3C)[nH]c2c1 in VACV Venus inh is entered as -1%
Cc1ccc(NC(=O)c2onc(C)c2Cl)cc1 in VACV Venus inh is entered as -12%

Continuation.
Below each compound – Vaccinia mCherry, VACV Venus inh
COc1ccc([C@H]2CC(=O)C=C(C#CC(C)(C)C)C2)cc1
  i, -17%
C=CCN1C(=O)c2ccc(C(=O)NCCOc3ccccc3F)cc2C1=O
  -12%, -12%
COc1c(Cl)cc(C(=O)Nc2cccc(-c3nc4ccccc4[nH]3)c2)cc1Cl
  -5%, -21%
CCCCc1c(O)nc2sc3cc(OC)ccc3n2c1=O
  ., -14%
Cc1ccc(-c2csc(-c3c[nH]c4ccccc34)n2)c(C)c1
  ?, ?

Screening results deposited in PubChem BioAssay by National Center for Advancing Translational Sciences (NCATS).
